# Screening results deposited in PubChem by National Center for Advancing Translational Sciences (NCATS).
# GLA inh pH 4.5 = inhibitors of human alpha-galactosidase A at pH 4.5; P06280; purified enzyme, 4-MU-alpha-Gal fluorescence, pH 4.5; activity change, negative = inhibition, % at 105 µM; 230,000 tested, under 10 active; AID 1467; inconclusive = small, poorly fitted or top-dose-only inhibition, or a rising curve; inactive = flat fitted curve, though single readings scatter; no compound was filed as active;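 further: 0% = full activity with enzyme and -100% = basal without enzyme; dose as in the result columns while the protocol names 77 µM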
# Target sequence (P06280 whole entry, looked up): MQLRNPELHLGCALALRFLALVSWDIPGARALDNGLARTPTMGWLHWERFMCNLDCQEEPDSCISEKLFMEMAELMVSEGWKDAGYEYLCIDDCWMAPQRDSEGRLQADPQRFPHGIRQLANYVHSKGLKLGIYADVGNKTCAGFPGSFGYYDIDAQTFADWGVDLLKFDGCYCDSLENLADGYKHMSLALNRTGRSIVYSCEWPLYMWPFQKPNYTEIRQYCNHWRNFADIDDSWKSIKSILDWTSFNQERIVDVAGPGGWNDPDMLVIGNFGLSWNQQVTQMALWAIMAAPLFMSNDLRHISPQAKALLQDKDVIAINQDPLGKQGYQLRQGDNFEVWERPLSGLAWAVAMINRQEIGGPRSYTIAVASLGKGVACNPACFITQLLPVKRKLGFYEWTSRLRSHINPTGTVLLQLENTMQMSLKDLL
# Rango complex inh = Rango-importin beta binding inhibition. Q14974. Rango CFP/YFP FRET sensor + importin beta, 45 min. Potency, µM (series often up to 92.2 µM), for the others: at the top dose inhibition of complex formation. 340,000 tested, 0.031% active. AID 540263; active = rising FRET ratio curve, often small or poorly fitted; inconclusive = mostly compound fluorescence or quenching in the first reads; inactive = flat curves in all reads;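 further: potency means the concentration at half of the fitted maximal effect; 0% = DMSO wells and 100% = buffer wells lacking importin beta; nearly all actives have a fitted effect of over 15% in size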
#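 FRET biosensor (snurportin 1 IBB flanked by EYFP and cerulean), 50 nM, with compound 5 min, then 0.125 microM importin beta in PBS, 1 mM DTT, 0.02% Tween-20, 0.1% BSA. CFP/YFP ratio read after 45 min at room temperature; pre-read flags interference.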
# miR-21 FLuc = miR-21 reporter, rising signal; HeLa miR-21 FLuc reporter, luciferase, 48 h; Potency, µM (highest dose often 38.3 µM), inactives show top-dose reporter change, positive = more light; 340,000 tested, under 10 active; AID 2288; active = well fitted rising curve with a large enough effect; inconclusive = small, poorly fitted or top-dose-only effect; inactive = no such curve, though single readings can be large or run the other way;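 further: % of control where 0% means no effect; miR-21 action dims this reporter so a rising signal means less miR-21 action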
#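 HeLa cells endogenously expressing miR-21, stably carrying CMV-driven firefly luciferase with a downstream miR-21 binding site, 2000 cells/well. Titrations up to approximately 40 uM, 48 hours; luciferase luminescence read.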
# Rango dissoc inh = prevents RanGTP from dissociating the Rango-importin beta complex. O95149+P62826. Biochemical FRET Rango-importin beta, RanGTP-induced dissociation. AID 540253. Potency, µM (doses to about 46.1 µM), inactives show at the top dose activity change, negative = inhibition. 340,000 tested, 0.071% active; active means falling FRET ratio curve, often poorly fitted, with flat reads before Ran was added; inconclusive means other falling curves, or compound fluorescence or quenching; inactive means flat or rising ratio curve;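 further: potency means the concentration at half of the fitted maximal effect; % of control where 0% means no effect; nearly all actives have a fitted effect of over 45% in size; -100% = wells without RanGTP and RCC1; the record marks most hits as doubtful in a second field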
#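 Rango FRET biosensor (snurportin-1 IBB flanked by N-terminal EYFP and C-terminal CFP10) at 0.1 uM, with 0.25 uM importin beta in PBS, 1mM DTT, 0.02% Tween-20, 0.1% BSA. 0.6 uM Ran, 2mM GTP and 0.2 uM RCC1 were then added for 45 min at room temperature. Inhibition read as loss of FRET rise.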
# The depositor's hits bear a star; ? = inconclusive; · = no result given; & = joins results of further samples. Not all compounds are listed, so the mix of outcomes need not match the whole.
SMILES,GLA inh pH 4.5,Rango complex inh,miR-21 FLuc,Rango dissoc inh
Cc1ccc(NC(=O)NCCCc2ccccc2)cc1,5.9,6.3%,-39.0%,0.4%
CCn1c(CSc2nc(C)cc(C)n2)nnc1SCC(=O)Nc1ccccc1,-15.0,0.9%,-10.8%,1.1%
O=C(OCc1cc(=O)n2c(n1)sc1ccccc12)c1ccc(O)cc1,11.3,0.1%,-57.6%,8.2%
COC(=O)c1cc(C#N)c(N(C)Cc2ccccc2)nc1C,8.0,-2.7%,-34.4%,-1.3%
O=S(=O)(NCC(c1cccnc1)N1CCN(c2ccc(F)cc2)CC1)c1cccs1 (centres undefined),5.8,4.3%,6.2%,-8.0%
CC(C)(C)NC(=O)CN(c1cccc([N+](=O)[O-])c1)S(=O)(=O)c1ccccc1,-1.0,0.5%,-0.9%,1.2%
Cc1ccc(NC(=S)N(Cc2ccco2)C(C)c2cccs2)cc1 (centres undefined),3.7,4.3%,-1.7%,-1.2%
COc1ccc(C(=O)NC2CC2)cc1OC1CCN(Cc2ccccc2F)CC1,·,-1.1%,-9.0%,-0.6%
CN(C)CCNc1ccc(CO)c2sc3ccc(O)cc3c(=O)c12,·,0.0%,·,0.5%
COc1ccc(S(=O)(=O)N2CCCCCC2)cc1C(=O)N(C)CC(=O)Nc1cc(C)ccc1C,·,0.4%,0.3%,12.6%
COc1cccc(CNC(=O)CCNS(=O)(=O)c2ccc3c(c2)CC(C)N3C(C)=O)c1 (centres undefined),·,2.6%,1.1%,12.8%
CC(C)=C1C2CCC1C1C(=O)N(NC(=O)c3ccco3)C(=O)C21 (centres undefined),8.4,1.1%,-10.3%,-3.5%
CCOc1ccc(/C=C/C(=O)N(CC)CC(=O)NCc2cccs2)cc1OC,·,0.3%,·,12.5%
COc1cc(/C=N/NC(=O)c2ccncc2)c([N+](=O)[O-])cc1OC,·,-0.4%,0.0%,4.6%
Cc1cc(Nc2ccc(Br)cc2F)n2nc(C)nc2n1,-3.3,0.0%,-2.7%,-12.6%
Cc1ccc(-n2c(C)cc(C(=O)CSc3nncs3)c2C)cc1,6.3,-2.1%,-2.3%,-4.7%
COc1ccc(C)cc1NC(=O)C(=O)N/N=C(\C)CC(=O)Nc1cccnc1,6.4,1.2%,-6.9%,-4.9%
Cc1cccc(NC(=O)Cn2c(=O)oc3ccccc32)c1C,·,-3.4%,-0.3%,19.2%
CCOC(=O)c1cc2ccc(OC(=O)c3ccco3)cc2oc1=O,?,?,-10.5%,?
O=S(=O)(Nc1cc(Cl)ccc1N1CCOCC1)c1ccccc1Cl,·,-1.2%,·,-0.9%

# Sorted by length of the SMILES (highest first): some entries from above.
SMILES,GLA inh pH 4.5,Rango complex inh,miR-21 FLuc,Rango dissoc inh
COc1ccc(C)cc1NC(=O)C(=O)N/N=C(\C)CC(=O)Nc1cccnc1,6.4,1.2%,-6.9%,-4.9%
CC(C)=C1C2CCC1C1C(=O)N(NC(=O)c3ccco3)C(=O)C21 (centres undefined),8.4,1.1%,-10.3%,-3.5%
Cc1ccc(-n2c(C)cc(C(=O)CSc3nncs3)c2C)cc1,6.3,-2.1%,-2.3%,-4.7%
Cc1cccc(NC(=O)Cn2c(=O)oc3ccccc32)c1C,·,-3.4%,-0.3%,19.2%
Cc1cc(Nc2ccc(Br)cc2F)n2nc(C)nc2n1,-3.3,0.0%,-2.7%,-12.6%

# Remaining list, next part:
SMILES,GLA inh pH 4.5,Rango complex inh,miR-21 FLuc,Rango dissoc inh
CC[C@]12c3[nH]c4cc(-c5ccco5)ccc4c3CCN1C(=O)[C@@H](CC(=O)NCC13CC4CC(CC(C4)C1)C3)C[C@@H]2C(=O)N1CCN(C(=O)C2CC2)CC1,·,-1.3%,·,-12.0%
Cc1nc(N)sc1-c1csc(Nc2ccccn2)n1,-8.5,-3.5%,-49.9%,-7.6%
Cc1cc(C)c2nc(Nc3nc(-c4ccccc4)cc(=O)[nH]3)nc(C)c2c1,3.5,0.6%,-3.4%,-6.8%
CCOc1cc(S(=O)(=O)N2CCCC2)c(C)cc1C,4.9,1.0%,-5.4%,-3.0%
Cc1cc(C)n(-c2nc(SCC(=O)Nc3nccs3)c3c4c(sc3n2)COC(C)(C)C4)n1,-4.6,1.8%,-3.6%,-12.7%
COc1ccc(CNC(=O)CCS(=O)(=O)c2ccc3c(c2)oc(=O)n3C)cc1,·,3.9%,0.0%&-2.7%,-12.8%
O=C(O)CCCCCCCCCC[n+]1ccccc1,-1.3,0.1%,0.1%,21.7%
CC(OC(=O)c1cccc(-n2cnnn2)c1)C(=O)NC1(C#N)CCCCC1 (centres undefined),·,3.9%,·,-0.2%
CCOC(=O)c1c(C)[nH]c(C(=O)OCC(=O)N2CCN(S(=O)(=O)c3ccc(C)cc3C)CC2)c1C,·,1.2%,·,9.1%
C/C(=N\Nc1ccccn1)c1ccc(C#N)cc1,-2.3,4.5%,-14.5%,5.7%
COc1ccc(-c2cc(C(=O)OC3CCOC3=O)c3ccccc3n2)cc1OC (centres undefined),-6.9,?,-2.5%,?
Brc1ccc(CN2CC[C@H]3C=CCc4cccc(c43)C2)cc1,·,-11.5%,·,-0.7%
Cc1noc(C)c1CSCC(=O)Nc1cccc(C(F)(F)F)c1,·,1.3%,·,1.6%
O=C(N/N=C/c1coc2ccccc2c1=O)c1cc(Br)ccc1O,·,7.2%,9.5%,16.8%
CCN(CC)C(=O)c1cc(C(C)(C)C)c(O)c(C(C)(C)C)c1,-14.7,0.1%,-0.3%,22.6%
COc1ccc(NC(=O)COc2ccc(/C=C/c3cc[n+](C)cc3)cc2OC)cc1,·,?,7.9%,?
Cc1ccc(S(=O)(=O)n2ccc(-c3cccc(OCc4c(F)cccc4Cl)c3)n2)cc1,6.8,-5.3%,-12.5%,-4.5%
Clc1ccccc1/C=N/c1cc(-c2ccccc2)nn1-c1ccccc1,-8.8,-0.9%,-48.3%,9.8%
CC1(c2ccc([N+](=O)[O-])cc2)NC(=O)N(CC(=O)Nc2ccc(N3CCCCC3)cc2)C1=O (centres undefined),·,-1.7%,·,2.6%
COC(=O)c1ccccc1NC(=O)CCc1ccccc1,-10.8,-0.8%,-21.7%,0.1%

# One compound at a time, as listed above. Values in the order: GLA inh pH 4.5	Rango complex inh	miR-21 FLuc	Rango dissoc inh
# CC(C)(C)NC(=O)CN(c1cccc([N+](=O)[O-])c1)S(=O)(=O)c1ccccc1 is listed with -1.0	0.5%	-0.9%	1.2%
# Cc1cc(C)n(-c2nc(SCC(=O)Nc3nccs3)c3c4c(sc3n2)COC(C)(C)C4)n1 is listed with -4.6	1.8%	-3.6%	-12.7%
# COc1ccc(-c2cc(C(=O)OC3CCOC3=O)c3ccccc3n2)cc1OC (centres undefined) is listed with -6.9	?	-2.5%	?
# COc1cc(/C=N/NC(=O)c2ccncc2)c([N+](=O)[O-])cc1OC is listed with ·	-0.4%	0.0%	4.6%
# O=S(=O)(Nc1cc(Cl)ccc1N1CCOCC1)c1ccccc1Cl is listed with ·	-1.2%	·	-0.9%

# Remaining list, next part
SMILES,GLA inh pH 4.5,Rango complex inh,miR-21 FLuc,Rango dissoc inh
O=C(Cn1nc(C(F)(F)F)cc1C1CC1)NCc1ccccc1F,4.7,0.4%,1.4%,2.3%
COC(=O)CCCC1=CC2=C(c3ccccc3)C(=O)C(C)(OC(=O)C3CCCC3)C(=O)C2=CN1Cc1ccc(OC)cc1 (centres undefined),8.4&-12.5,?,-0.3%,?
COc1ccccc1C(CNC(=S)NCc1ccccc1)N1CCCC1 (centres undefined),-0.4,5.7%,4.1%,-1.4%
CCOc1ccc(-c2cccc(NS(=O)(=O)c3cc([N+](=O)[O-])ccc3Cl)c2)nn1,·,-0.5%,·,-0.2%
O=C(O)c1cc2nc(-c3ccc(F)cc3)cc(C(F)(F)F)n2n1,5.0,2.3%,-13.2%,0.5%
Cc1cnc(NC(=O)C2CCCC2)s1,4.0,3.9%,-7.5%,22.7%
CC(=O)Nc1ccc(N2CCN(C(C)=O)CC2)cc1,11.0,2.4%,1.3%,-1.7%
Cc1ccc(F)c(C2C3C=CCC(c4cccc(-c5ccc(N(C)C)cc5)c4)C3C(=O)N2Cc2ccccc2)c1 (centres undefined),3.1,-5.7%,3.7%,-25.0%
CC(C)c1nc(SCC(=O)NCC2CCCO2)c2c(=O)n(C)c(=O)n(C)c2n1 (centres undefined),·,-1.6%,0.3%,-9.4%
COc1cc(C2c3c(n[nH]c3C)C(=O)N2c2ccc(C)cc2)ccc1O (centres undefined),2.9,0.6%,-9.6%,-19.9%
O=c1ccc2ccc(O[C@@H]3O[C@H](CO[C@@H]4OC[C@](O)(CO)[C@H]4O)[C@@H](O)[C@H](O)[C@H]3O)cc2o1,·,5.4%,·,22.8%
COc1ccc(N2CCN(S(=O)(=O)c3cn(C)cn3)CC2)cc1,·,-0.4%,-0.5%,-3.1%
O=c1[nH]nc(SCc2ccccc2)c(=O)[nH]1,-4.2,-2.6%,-12.1%,7.2%
O=C(Nc1ccccc1C(=O)Nc1ccc(F)cc1)c1ccco1,·,-0.5%,-2.6%,4.7%
Cn1cc(NC(=O)c2cc(NC(=O)c3cc(NC=O)cn3C)cn2C)cc1C(=O)NCCC(=N)N,-0.6,·,6.6%,·
CN(C)CCNC(=O)c1cccc(S(=O)(=O)Nc2ccc(F)cc2)c1,1.5,3.6%,-4.5%,-11.8%
CC(C)(C)C(=O)/C=C1\SCC(=O)N1CC(=O)N1CCN(c2ccccc2)CC1,·,-2.0%,·,7.5%
COc1ccccc1CN1CCC(CNS(=O)(=O)c2cc(-c3cc(C)no3)ccc2OC)CC1,·,-3.7%,-9.4%,3.9%
CCCCNC(=O)CSc1nccn1Cc1ccccc1,-5.2,-3.0%,-5.5%,-16.8%
Cc1cc(C)cc(NC(=O)CN2CCN(c3ccccc3)CC2)c1,·,2.2%,-0.2%,12.8%
CCNC(=O)NNC(=O)C1CC(c2cccs2)=NO1 (centres undefined),7.9,-2.4%,0.6%,0.6%
COc1ccc(Cl)cc1NC(=O)CN1CCN(Cc2ccccc2)CC1,·,-3.4%,-4.7%,13.1%
COc1cc(C(=O)Nn2c(O)c(C3=c4ccccc4=NC3=O)sc2=S)ccc1O,-8.0,-0.3%,-6.6%,0.0%
Cc1cc(C)cc(NC(=O)CSc2nc3[nH]c(=O)cc(O)c3s2)c1,·,-2.1%,-1.9%,1.7%
CC1CN(S(=O)(=O)N(C)C)CCN1S(=O)(=O)N(C)C (centres undefined),15.8,3.6%,7.7%,8.7%
O=C(Nc1ccc(S(=O)(=O)NCc2cccnc2)cc1)c1ccccc1Cl,-4.4,-1.1%,1.1%,11.4%
O=C(Nc1ccc(-n2cnnn2)cc1)C(c1ccccc1)c1ccccc1,-2.4,-0.2%,0.9%,-8.3%
CCn1ccc(C(=O)N2CCOCC2)n1,8.3,0.8%,0.9%,7.7%
O=C(CNC(=O)C(c1ccccc1)c1ccccc1)OCC(=O)c1cccs1,-6.9,2.8%,-0.8%,-19.1%
NS(=O)(=O)c1cc(C(=O)OCC(=O)Nc2ccc(N3CCCCC3)cc2)ccc1Cl,-3.4,-2.4%,-17.6%,12.3%
CNc1nc(Nc2ccc(C(C)=O)cc2)nc(OC(C(F)(F)F)C(F)(F)F)n1,-4.7,0.1%,-7.9%,0.4%
CCOC(=O)C1CCN(C(=O)c2cccc(NS(=O)(=O)c3ccc(Br)cc3)c2)CC1,·,4.4%,·,6.4%
